# VACV mCherry inh: vaccinia inhibition (mCherry reporter); Potency, µM (highest dose often 36.5 µM), for the others: at the top dose activity change, negative = inhibition, hits mostly inhibitors; Vaccinia virus mCherry reporter infection, fluorescence; about a quarter of the inactives have no number; 0.63% of 310,000 active; AID 720579; active = well fitted inhibition curve with a large enough effect; inconclusive = small, poorly fitted or top-dose-only effect; inactive = no such curve, though single readings can be large or run the other way; tested in A549 cells; also: nearly all actives have a fitted effect of over 35% in size; inactives centre near -10
# Vaccinia Venus: inhibitors of vaccinia virus (Venus reporter) | Vaccinia virus Venus reporter expression, fluorescence | Potency, µM (titrated, usually from 36.5 µM), inactives show top-dose activity change, negative = inhibition, hits mostly inhibitors | 0.46% of 330,000 active | AID 720580; active means well fitted inhibition curve with a large enough effect; inconclusive means small, poorly fitted or top-dose-only effect; inactive means no such curve, though single readings can be large or run the other way; tested in A549 cells; also: nearly all actives have a fitted effect of over 30% in size; inactives centre near -10
# Numbers without * were called inactive; i = inactive; ? = inconclusive; · = no result given; [ ] = dose if it differs, or a comment. % is scaled to controls: 0 for no effect and ±100 for the full control effect; potency is read from the fitted curve at half-maximal effect.
SMILES,VACV mCherry inh,Vaccinia Venus
COc1ccc(N2CCN(C(=S)NCc3ccccc3)CC2)cc1,-7.6%,-7.9%
Cc1ccccc1CSc1nc2c([nH]c3ccccc32)c(=O)n1-c1ccccc1,-8.1%,-27.3%
CCC(=O)NC(=S)Nc1ccc(NC(=O)c2ccc(OC)cc2)cc1,-11.5%,-0.5%
Cc1ccc2nc(-c3cccs3)oc(=O)c2c1,i,-0.9%
O=C1[C@H](Cc2ccccc2)NCC=CC[C@H](c2ccc(Cl)cc2)N1Cc1ccccc1,i,-29.2%
O=C(CC1SC(=O)N(Cc2ccc(Cl)cc2)C1=O)Nc1nccs1 (stereo not given),-12.9%,-12.9%
CN(C(Cc1ccc(OS(=O)(=O)c2cccc3cnccc23)cc1)C(=O)N1CCN(c2ccccc2)CC1)S(=O)(=O)c1cccc2cnccc12 (stereo not given),-3.7%,-8.6%
COC(=O)Cn1cc(/C=C(/C#N)C(=O)N2CCOCC2)c2ccccc21,-3.8%,3.0%
Cc1cc(Nc2ccccc2C)c2cccc(C)c2n1,-20.7%,3.6%
COc1ccc(/C=C(/C#N)c2nc(-c3cc4ccccc4oc3=O)cs2)cc1,?,-27.0%
CCN(CC)C(=O)C1=C(C)N(CCCN2CCCC2=O)C(=O)C(CC(=O)NC(c2ccccc2)c2ccccc2)C1 (stereo not given),-8.2%,-12.9%
CCOC(=O)CCC(=O)Nc1cccc([N+](=O)[O-])c1,i,-11.3%
CCOC(=O)c1c(NC(=O)COC(=O)Cn2cnc3ccccc32)sc(C)c1C,10µM*,?
Cc1ccccc1OCCCn1c(-c2ccc(Cl)cc2)nc2ccccc2c1=O,-10.0%,-3.4%
Cc1ccc(N2C(N)=NC(N)=NC2(C)C)c(C)c1,·,-19.3%
COc1cc(OC)cc(-c2c(-c3cccs3)c3cc(-c4ccc(SC)cc4)ccc3n2C)c1,?,-15.2%
COC1=CC2(O)CCCC2=CC1=O (stereo not given),-4.1%,0.5%
CCc1ccccc1NC(c1nnc(-c2cccc(F)c2)o1)c1ccc(F)cc1Cl (stereo not given),-1.2%,-3.9%
O=C(c1ccccn1)C1CCCN(Cc2nc(Cc3cccc(F)c3)no2)C1 (stereo not given),?,-22.3%
Cc1ccc(C)c(Cn2c3ccccc3c3cnn(CC(=O)NCCCN4CCOCC4)c(=O)c32)c1,-14.7%,?
CC1CN(C)C(C)C/C1=N/Oc1ccccc1[N+](=O)[O-] (stereo not given),-15.7%,-13.8%
Cc1ccc(NC(=O)CCn2c(=O)c3cccn3c3ccccc32)cc1Cl,-18.1%,-11.6%
Cc1cccc(C(=O)N(C(=O)c2cccc(C)c2)N(C)C)c1,-20.6%,-7.1%
O=c1cc(CSc2ccc(Cl)cc2)nc(-c2ccccn2)[nH]1,?,?
CN1CCC(OC(=O)C2c3ccccc3Oc3ccccc32)CC1,-25.6%,-14.4%

# Ordered by molar mass (descending): part of the list above.
SMILES,VACV mCherry inh,Vaccinia Venus
COc1cc(OC)cc(-c2c(-c3cccs3)c3cc(-c4ccc(SC)cc4)ccc3n2C)c1,?,-15.2%
O=C1[C@H](Cc2ccccc2)NCC=CC[C@H](c2ccc(Cl)cc2)N1Cc1ccccc1,i,-29.2%
CCOC(=O)c1c(NC(=O)COC(=O)Cn2cnc3ccccc32)sc(C)c1C,10µM*,?
Cc1ccccc1CSc1nc2c([nH]c3ccccc32)c(=O)n1-c1ccccc1,-8.1%,-27.3%
CCOC(=O)CCC(=O)Nc1cccc([N+](=O)[O-])c1,i,-11.3%

# Later entries:
SMILES,VACV mCherry inh,Vaccinia Venus
COc1ccc(OC)c(CN2CCN(CCc3ccccc3)C(CCO)C2)c1 (stereo not given),-11.1%,3.4%
COc1ccc(NC(=O)C2CCN(C(=O)Cc3ccccc3)CC2)c(OC)c1,i,-15.4%
CCCCNC(=S)Nc1cccc2cnccc12,-14.5%,1.0%
CC1CN(C(=O)c2ccc3c(c2)OCO3)OC(c2ccccc2)O1 (stereo not given),·,?
Cc1nc(-c2c(-c3ccc(O)cc3O)noc2C(F)(F)F)cs1,·,?
CC(=O)Nc1ccc(S(=O)(=O)Nc2nc3ccccc3nc2Nc2cccc(O)c2)cc1,i,3.5%
S=C(Nc1ccccc1)c1ccccn1,·,-24.0%
O=C(CCC(=O)N1C[C@H]2C[C@@H](C1)c1cccc(=O)n1C2)NCc1ccc(F)cc1,-3.1%,-16.1%
O=[N+]([O-])c1ccc(N2CCOCC2)cc1SCc1ccco1,i,-21.9%
CCN(CC)CCOc1ccc(Br)cc1,i,-6.2%
O=C(O)c1ccc2c(c1)C(=O)N(c1cccc(-c3nc4ccccc4s3)c1)C2=O,i,-2.9%
CCC1C(=O)N=C(SCC(=O)Nc2ccccc2)NC1=O (stereo not given),·,-12.3%
CCOc1ccccc1CNC(=O)C1CCN(S(=O)(=O)c2c(C)noc2/C=C/c2ccc(C)cc2)CC1,-4.6%[7.34 µM],-7.5%[7.34 µM]
Cc1ccccc1OCC(=O)Nc1nnc(-c2ccncc2)s1,-9.5%,-17.6%
COc1ccc(NC(=O)c2c(NC(=O)CNCc3ccco3)sc3c2CCC3)cc1,·,-25.5%
Cc1ccc(S(=O)(=O)CC(=O)Nc2cc(C)on2)cc1,12.7%,11.2%
CC(C)c1ccc(-c2noc(SCC(=O)N3CCCCC3)n2)cc1,-16.0%,-7.7%
Cc1ccc(S(=O)(=O)N(C)C)cc1NC(=S)NC1CCCC(C)C1C (stereo not given),-3.3%,-14.8%
CC(=O)Nc1ccc(NC(=O)c2ccccc2CC[N+](=O)[O-])cc1,·,2.8%
CCc1nnc(NC(=O)CSc2sc3c(O)cc(=O)[nH]c3c2C#N)s1,-14.1%,1.5%
Cc1cccnc1C1=NOC(Cc2ccccc2)C(=O)N1CCOc1ccc(F)cc1 (stereo not given),19.4%,2.9%
CC(=O)N1c2ccc(S(=O)(=O)N3CCCCC3)cc2CC1C(=O)Nc1ccc(F)cc1C (stereo not given),-8.8%,-7.8%
N#CCC(=O)Nc1ccc(C(=O)NCCC(c2ccccc2)c2ccccc2)cc1,-7.3%,-12.0%
Cc1ccc(-c2ccnc(-n3ncc(C(=O)NCCN4CCOCC4)c3C3CC3)n2)o1,i,-18.5%
COc1ccc(Nc2cc(C(=O)NCCCN(C)C3CCCCC3)c3ccccc3n2)c(OC)c1,-16.8%,-13.1%
# Going on with the list:
SMILES,VACV mCherry inh,Vaccinia Venus
CC1CCN(C(=O)c2ccc(CSc3nc4ccncc4n3Cc3ccc(F)cc3)cc2)CC1,-16.6%,?
COC(=O)c1cc2sccc2n1CC(=O)Nc1ccc(OC)c(OC)c1OC,-12.4%,-17.2%
Cc1ccc(C(=O)COC(=O)C(C)N2C(=O)C3C4CCC(C4)C3C2=O)cc1 (stereo not given),-7.6%,-1.9%
COc1ccc(OC)c(N2C(N)=NC(N)=NC23CCCC3)c1,-12.9%,-7.0%
COc1ccc(/C=C/c2nccc3c2[nH]c2ccccc23)cc1,17.4%,-9.0%
O=C(Cc1ccc(Cl)cc1)Nc1ccc2oc(-c3ccncc3)nc2c1,-2.1%,-29.8%
Fc1ccccc1N1CCN(c2cnc3ccccc3n2)CC1,·,-23.7%
CCOC(=O)CNC(=O)C1CCC(CNS(=O)(=O)c2cccc3nsnc23)CC1 (stereo not given),-14.6%,-13.0%
CC(=O)Oc1cccc(N2C(=O)C3CC=C(Cl)CC3C2=O)c1 (stereo not given),-10.3%,-7.2%
CS(=O)(=O)c1ncc(Cl)c(C(=O)Nc2c(C(=O)Nc3ccccc3)oc3ccccc23)n1,?,?
O=C1CC(c2ccc(Cl)cc2)Sc2nc(-c3ccc(F)cc3)nn21 (stereo not given),i,-0.2%
COc1ccc(C(c2sc3ncnn3c2O)N2CCN(c3ccccc3F)CC2)cc1OC (stereo not given),10.0%,-1.4%
Cc1ccc(OCCNC(=O)CCNS(=O)(=O)c2ccc(C)cc2)cc1,-15.9%,-25.7%
Cc1ccc(C)c(N2CCN(c3nc4ccc(C(=O)c5ccccc5)cc4n4cnnc34)CC2)c1,-15.3%,-7.9%
CCOC(=O)Nc1sc2nc(C)cc(C)c2c1-n1cccc1,·,-18.9%
COc1ccc(C2C(C(=O)Nc3cccnc3)=C(C)Nc3nc(-c4ccco4)nn32)cc1 (stereo not given),3.5%,-0.3%
O=C1OC(/C=C/c2ccc(Cl)cc2)=NC/1=C/c1ccco1,-3.9%,-10.3%
CC(C)N(Cc1nc(-c2ccc(Cl)cc2)no1)Cc1nccn1C,i,-2.5%
Cc1cccc(NC(=O)C2CCN(S(=O)(=O)c3ccc4c(c3)OCCCO4)CC2)n1,i,-7.8%
CC(=O)c1sc2nc(=O)c(C)nn2c1C,i,-2.3%
C=CCOC(=O)C1=C[C@H](c2ccc(C(F)(F)F)cc2)C[C@H](OCCCCO)O1,-6.1%,-15.3%
CCOc1ccc(CCNC(=O)CN(C)S(=O)(=O)c2cccs2)cc1OCC,-10.8%,-12.9%
Cc1c(CCC(=O)N[C@@H](CCCNC(N)=O)C(=O)O)c(=O)oc2cc3oc4c(c3cc12)CCCC4,6.6%,3.0%
Cc1ccc(NC(=S)NCc2ccco2)c(C)c1,-20.5%[7.34 µM],0.1%[7.34 µM]
C[C@H]1CCCCO[C@H](CN(C)Cc2ccncc2)[C@@H](C)CN([C@@H](C)CO)C(=O)c2cc(NS(=O)(=O)c3ccccc3)ccc2O1,-12.6%,-9.9%
# (list continues)
SMILES,VACV mCherry inh,Vaccinia Venus
CCc1cc2c(=O)c(-c3cnn(-c4ccccc4)c3)c(C)oc2cc1OCC(=O)Nc1ccc(F)c(F)c1,-15.6%,-5.2%
CNS(=O)(=O)c1cccc(C(=O)OCC(=O)Nc2ccccc2F)c1,-7.6%,-15.1%
COc1cccc(COCC(O)Cn2cnc3cc(C)c(C)cc32)c1 (stereo not given),i,-14.3%
C#CCOCCOCCOCCNc1nc(N2CCN(C(=O)Cn3cc(CCCCN)nn3)CC2)nc(N2CCN(C(=O)[C@H](CCCCN)n3cc(CCC(=O)O)nn3)CC2)n1,i,-4.7%
COc1ccc(CCCc2nnc(SCC(=O)Nc3ncc(C)s3)o2)cc1,-12.3%,-6.5%
CC1(c2ccccc2Cl)NC(=O)N(CC(=O)c2ccc3c(c2)OCO3)C1=O (stereo not given),-12.0%,0.7%
CC(C)c1nc(SCC(=O)N2CCOCC2)c2c(=O)n(C)c(=O)n(C)c2n1,8.7%,8.2%
CC(C)CNC(=O)Nc1cc(C(=O)NCc2ccc(C(C)C)cc2)ccc1N1CCCC1,1.0%,-5.4%
COCCn1c(SCC(=O)N2CCCCCC2)nc2c(c1=O)SCC2,-0.2%,-12.6%
Cc1cc(-c2ccco2)n(CC(=O)NCCCc2ccccc2)n1,23.6%,6.3%
O=C(COC(=O)Cn1cnc2ccccc21)NCCc1ccc(Cl)cc1,-16.7%,-16.6%
Cc1cccc(NC(=O)COC(=O)c2cccc3c2C(=O)c2ccccc2C3=O)c1C,?,?
CC1CCCCN1C(=O)COC(=O)c1cc([N+](=O)[O-])ccc1N (stereo not given),-12.9%,-9.9%
O=C(c1ccc(COc2ccc(Cl)cc2)cc1)N1CCCCC1,i,-23.7%
CN1CCCCC1(C)C(=O)NCc1cc(Cl)ccc1F (stereo not given),i,-12.6%
COc1ccc(-n2c(C)c3c(OC)cccc(=O)c3c2C)cc1,-16.3%,-7.3%
Cc1cc(-c2nnc(SCC(=O)Nc3ccccc3C(F)(F)F)o2)c(C)n1-c1ccccc1,·,?
CCCCNC(=O)C1(C)CCC(=O)N1C1CC1 (stereo not given),17.6%,-1.1%
O=C(c1ccccc1)N(C1=NCCCCS1)c1ccccc1,-2.8%,-14.0%
Cc1cc(Nc2ccccc2O)c2ccccc2n1,-16.6%,-2.9%
CCC1(C)Cc2ccccc2-c2c1c(=O)n(Cc1ccccc1)c1nnnn21 (stereo not given),·,0.9%
Nc1ccc(-c2c3ccc(=O)cc-3oc3cc(O)ccc23)c(C(=O)O)c1,i,276.9%[activator]
CC(C)[C@H](NC(=O)N1CCn2c1nc1ccccc12)C(=O)N[C@H](C(=O)O)c1ccccc1,-11.9%,-2.0%
COCCn1nnnc1C(c1ccccc1)N1CCN(C)CC1 (stereo not given),·,-6.7%
COc1ccc(-c2cc(N3CCN(CCO)CC3)n3nccc3n2)cc1,2.1%,8.9%

# The list goes on, starting with the last 3 of the part before.
SMILES,VACV mCherry inh,Vaccinia Venus
CC(C)[C@H](NC(=O)N1CCn2c1nc1ccccc12)C(=O)N[C@H](C(=O)O)c1ccccc1,-11.9%,-2.0%
COCCn1nnnc1C(c1ccccc1)N1CCN(C)CC1 (stereo not given),·,-6.7%
COc1ccc(-c2cc(N3CCN(CCO)CC3)n3nccc3n2)cc1,2.1%,8.9%
O=Cc1c(-[n+]2ccccc2)nc([O-])n1-c1ccccc1,-3.1%,-9.6%
Nc1ccc(Cc2ccc(C=O)cc2)cc1,i,-15.1%
C=CCOC(=O)C1=C(C)OC(N)=C(C#N)C1c1ccc2c(c1)OCO2 (stereo not given),·,-7.5%
O=C(COC(=O)[C@H](Cc1ccccc1)NC(=O)c1ccco1)Nc1ccccc1OC(F)F,i,-18.3%
Cc1ccc(CNC(=O)[C@H](C)[C@H]2C[C@]2(C)[C@H](NC(=O)OCc2ccccc2)c2ccccc2)o1,i,?
Cc1ccc(NC(=O)Cn2nnc3sc4c(c3c2=O)CCCC4)c(C)c1,-6.5%,-3.2%
Cc1cc(=O)oc2cc(OCc3ccc(C(=O)OCC(=O)Nc4ccccc4OC(F)F)cc3)ccc12,-9.2%,-2.7%
O=C(Nc1ccc2c(c1)CCCN2C(=O)c1cccs1)c1c(F)cccc1F,1.2%,-5.4%
COc1cccc(CNS(=O)(=O)c2ccc3c(c2)CC(C)N3C(C)=O)c1 (stereo not given),-1.3%,-16.9%
O=C(CSc1nc(=O)[nH]c2c1CCC2)NCc1ccccc1Cl,3.3%[7.34 µM],-8.7%[7.34 µM]

# Assay outcomes (PubChem)
